# Apoferritin bind – binds horse apoferritin like a general anesthetic; actives 0.074% (n = 350,000); apoferritin/1-aminoanthracene competitive binding, fluorescence; Potency, µM (doses to about 77.5 µM), for the others: at the highest dose activity change, negative = displacement, hits mostly inhibitors; AID 485281; P02791; note: % is set by controls: 0 for no effect and ±100 for the full control effect; nearly all actives have a fitted effect of over 20% in size
#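 In PBS, apoferritin at 10 uM is loaded with 1-AMA from a 50% saturated solution. After 10 min of compound exposure at ambient temperature, reduced 535 nm fluorescence indicates probe displacement.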
# POLB inh – inhibitors of human DNA polymerase beta; P06746; Pol beta primer extension/strand displacement, fluorescence kinetic; Potency, µM (top dose mostly 114 µM), for the others: top-dose activity change, negative = inhibition, most hits filed as inhibitors; actives 1.3% (n = 340,000); AID 485314; note: % is set by controls: 0 for no effect and ±100 for the full control effect
#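 Values derive from four-parameter Hill fits of normalized kinetic data: reads at 0 and 10 min following addition of 50 nM substrate to 10 nM Pol beta preincubated 15 min with compound.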
# POLI inh – DNA polymerase iota (human) inhibition; Pol iota fluorescent replication assay, 10 min; Q9UNA4; Potency, µM (doses to about 115 µM), for inactives: top-dose activity, negative = inhibition, most hits filed as inhibitors; AID 588590; actives 1% (n = 390,000)
#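 Fluorescent replication assay read twice, at 0 min and 10 min after adding 50 nM (final) substrate. Enzyme (10 nM) and compounds were first incubated 15 min at room temperature; enzyme-free buffer wells were negative controls.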
# BLM inh – Bloom syndrome helicase (human) inhibition. P54132. recombinant BLM DNA unwinding, fluorescence dequenching. Potency, µM (doses to about 56.1 µM), for the others: at the top dose activity change, negative = inhibition, most hits filed as inhibitors. actives 0.2% (n = 350,000). AID 2528;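 note: plate controls were vehicle for no effect and no enzyme for full effect; nearly all actives have a fitted effect of over 35% in size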
# G9a inh – blocks human histone lysine methyltransferase G9a; AID 504332; G9a H3K9 monomethylation, AlphaScreen, 2 h; Q96KQ7; actives 8.8% (n = 350,000); Potency, µM (top dose mostly 102 µM), inactives show top-dose activity, negative = inhibition, hits mostly inhibitors; note: % is set by controls: 0 for no effect and ±100 for the full control effect; nearly all actives have a fitted effect of over 75% in size
#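 Chemiluminescent proximity detection of H3K9 monomethylation, read after 10 min bead incubation in the dark. Reaction: 20 nM G9a, 500 nM biotin-H3K9 peptide, 20 uM SAM cofactor, 2 h, room temperature, following 15 min enzyme-compound preincubation.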
# Pol eta inh – inhibitors of human DNA polymerase eta | Q9Y253 | recombinant Pol eta, fluorescent DNA replication assay | Potency, µM (highest dose often 114 µM), without a hit: at the top dose activity change, negative = inhibition, usual class: inhibitors | actives 1.2% (n = 390,000); note: % is set by controls: 0 for no effect and ±100 for the full control effect
# Target sequence (Q9Y253 whole entry, looked up): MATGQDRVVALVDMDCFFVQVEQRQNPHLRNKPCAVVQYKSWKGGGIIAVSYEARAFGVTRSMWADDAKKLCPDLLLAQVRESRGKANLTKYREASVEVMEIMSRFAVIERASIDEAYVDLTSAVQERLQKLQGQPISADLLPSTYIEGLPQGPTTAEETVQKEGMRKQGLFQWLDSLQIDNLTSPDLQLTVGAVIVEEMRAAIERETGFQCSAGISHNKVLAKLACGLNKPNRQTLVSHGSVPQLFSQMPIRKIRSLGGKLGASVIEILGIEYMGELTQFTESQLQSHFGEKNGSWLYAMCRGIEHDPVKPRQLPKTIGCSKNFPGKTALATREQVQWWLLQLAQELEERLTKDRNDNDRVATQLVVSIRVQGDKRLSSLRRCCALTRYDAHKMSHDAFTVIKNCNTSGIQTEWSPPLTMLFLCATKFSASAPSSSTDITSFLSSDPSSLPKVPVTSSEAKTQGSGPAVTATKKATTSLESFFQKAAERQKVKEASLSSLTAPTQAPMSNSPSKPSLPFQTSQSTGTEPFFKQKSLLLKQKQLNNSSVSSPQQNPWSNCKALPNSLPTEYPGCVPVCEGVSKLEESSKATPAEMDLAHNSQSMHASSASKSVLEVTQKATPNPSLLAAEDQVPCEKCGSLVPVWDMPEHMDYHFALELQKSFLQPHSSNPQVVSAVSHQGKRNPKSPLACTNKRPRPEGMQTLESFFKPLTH
#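 Pol eta at 10 nM preincubated with compounds 15 min at room temperature; reaction started with fluorescent substrate (50 nM final) and read kinetically at 0 and 10 min.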
# APE1 inh – inhibitors of human APE1 endonuclease | Potency, µM (doses to about 65.8 µM), for the others: at the highest dose activity change, negative = inhibition, actives largely listed as inhibitors | AID 2517 | actives 0.35% (n = 350,000) | recombinant APE1, TAMRA/BHQ-2 abasic DNA cleavage fluorescence;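 note: plate controls were vehicle for no effect and reference inhibitor for full effect; nearly all actives have a fitted effect of over 55% in size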
# Target sequence (P27695 whole entry, looked up): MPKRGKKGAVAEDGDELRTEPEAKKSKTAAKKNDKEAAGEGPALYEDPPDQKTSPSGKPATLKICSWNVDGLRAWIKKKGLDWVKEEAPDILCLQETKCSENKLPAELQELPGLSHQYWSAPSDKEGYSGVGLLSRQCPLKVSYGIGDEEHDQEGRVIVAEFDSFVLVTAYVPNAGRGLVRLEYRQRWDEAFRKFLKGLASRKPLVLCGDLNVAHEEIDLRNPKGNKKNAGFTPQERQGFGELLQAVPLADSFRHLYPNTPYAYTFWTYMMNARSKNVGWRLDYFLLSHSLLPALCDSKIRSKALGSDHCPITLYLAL
#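 Enzyme (0.75 nM final) and test compound are incubated 15 min at room temperature before adding 50 nM quenched THF abasic-site duplex. Cleavage dequenches TAMRA, followed at 525/598 nm over three reads one minute apart.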
# POLK inh – DNA polymerase kappa (human) inhibition | AID 588579 | Q9UBT6 | purified Pol kappa, fluorescent DNA synthesis assay, 10 min | Potency, µM (doses to about 107 µM), for the others: at the top dose activity, negative = inhibition, hits mostly inhibitors | actives 0.53% (n = 400,000); note: % is set by controls: 0 for no effect and ±100 for the full control effect
#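 10 nM Pol kappa preincubated 15 min at room temperature with compounds, then reaction started with substrate at 50 nM final. Fluorescence read kinetically at 0 and 10 min; buffer-only wells served as negative control.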
# Starred values were filed as active, the others as inactive; u = inconclusive; x = no result given; & = joins results of further samples; [ ] = dose if it differs, or a comment. Calls come from the whole dose curve; as a rule, active = well fitted curve in the direction sought with a large enough effect; inconclusive = small, poorly fitted or top-dose-only effect, or another doubt; inactive = no such curve, though single readings can be large; an effect the other way counts as inactive or inconclusive. Potency is the fitted concentration of half-maximal effect.
cpd	SMILES	Apoferritin bind	POLB inh	POLI inh	BLM inh
1	COc1cc(OC)cc(C(=O)N2CCC(n3c(C)nc4cc(F)ccc43)CC2)c1	-13.2%	-19.6%	10.2%	0.2%
2	COc1cc2c(cc1OC)C1O[C@](c3ccsc3)(C2)Oc2cc(-c3ccccc3)oc(=O)c21	-7.0%[15.3 µM]	12.6µM*	x	-12.2%[12.4 µM]
3	COC(=O)c1cc(=O)n(Cc2ccco2)c(=Nc2ccc(F)cc2)s1	u	u	u	-14.0%
4	CS(=O)(=O)N(CC(=O)N1CCCCCC1)c1cc(Cl)ccc1Cl	-9.0%	-14.3%	16.2%	-7.0%
5	CN(C)c1cccc(C(=O)NCCCn2ccc3ccccc32)c1	5.1%	28.2%	-5.5%	-0.9%
6	COC(=O)c1ccccc1NC(=O)C1CC(c2ccc(F)cc2)=NO1 (stereo unspecified)	8.4%	23.4%	-16.2%[58.9 µM]	-3.1%
7	O=C(CSc1ccc2nnc(-c3ccccn3)n2n1)N1CCOCC1	-8.4%	2.2%	4.1%	-0.8%
8	CC1Cc2ccccc2N1CC(=O)NC(=O)NCc1ccco1 (stereo unspecified)	-1.9%	-14.5%	u	-2.9%
9	CCOc1ccc(OCCCCN(C)C)cc1	-8.8%	-3.2%	2.4%	1.8%
10	CC(C)NC(=O)C1CCN(C2CCN(CC3CC=CCC3)CC2)CC1 (stereo unspecified)	-8.1%	u	-6.5%	-0.8%

cpd	G9a inh	Pol eta inh	APE1 inh	POLK inh
1	-42.2%[59 µM]	3.7%	1.1%	-1.5%
2	u	x	-2.9%[12.4 µM]	x
3	x	-10.4%	-4.5%	0.0%
4	x	5.0%	3.3%	2.9%
5	70.8µM*	-3.4%	4.3%	-19.9%
6	-3.2%	-6.7%	14.8%	-6.1%
7	u	-20.1%	2.7%	1.7%
8	u	-0.1%	-11.3%	-17.9%
9	3.55µM*	8.7%	0.9%	2.9%
10	22.6%	-7.9%	-2.9%	-1.3%

# (listing goes on)
cpd	SMILES	Apoferritin bind	POLB inh	POLI inh	BLM inh
11	Cc1ccc(-n2c(SCC(=O)Nc3c(C)cccc3C)nc(O)c(C)c2=O)cc1	-11.3%	u	2.8%	-1.9%
12	Brc1ccc(-c2ccc(CNCc3ccccn3)o2)cc1	-16.1%	0.8%	-4.1%	-11.9%
13	COc1cc(-c2noc(C)c2-c2ccc3[nH]ccc3c2)cc(OC)c1OC	-4.5%	-5.2%	-15.9%&4.8%	-9.5%
14	CC(C)n1cnc2c(NCc3ccccc3)cc(Cc3ccc(F)cc3)cc21	x	x	7.5%	x
15	O=C(c1cccnc1)N1CCN(Cc2ccccc2Br)CC1	-7.0%	24.1%	u	1.9%
16	COc1ccc(NC(=O)CSc2nnc(Cc3cccs3)n2C)cc1	x	x	18.2%	x
17	O=c1c2ccccc2n(Cc2ccc(Cl)cc2)c(=O)n1Cc1ccco1	-10.8%	-2.7%	27.5%	1.0%
18	Cc1ccccc1OCCNc1cc(N2CC(C)NC(C)C2)ccc1[N+](=O)[O-] (stereo unspecified)	u	-10.2%	20.1%	8.2%
19	CCc1ccc(NC(=O)CSc2ccc(-c3ccccn3)nn2)cc1	-11.9%&-8.7%	3.9%&-13.5%	13.7%&17.9%	2.2%&4.0%
20	COc1cccc(C(=O)N2CCN(C3CCC(c4ccccc4)CC3)CC2)c1 (stereo unspecified)	-20.0%	-14.1%	27.0%	-0.8%

cpd	G9a inh	Pol eta inh	APE1 inh	POLK inh
11	7.8%[59 µM]	-2.8%	x	-23.6%
12	x	-2.6%	-16.6%	-3.0%
13	u	-14.6%	-11.1%	-8.2%&-11.2%
14	20.5%[2.33 µM]	-16.7%	12.5%	-4.2%
15	u	11.3%	-2.7%	-20.4%
16	u	0.4%	-7.9%	3.9%
17	15.4%[59 µM]	-10.0%	3.1%	4.4%
18	39.8µM*	-17.5%	-5.7%	-5.3%
19	-2.0%[59 µM]	2.5%&-5.1%	16.5%	-13.0%&-15.4%
20	-138.1%[59 µM]	u	8.2%	-14.5%

# (further entries)
cpd	SMILES	Apoferritin bind	POLB inh	POLI inh	BLM inh
21	Cc1cccc(OCC(=O)Nc2cc(NC(=O)COc3cccc(C)c3C)cc(C(=O)O)c2)c1C	-0.3%	10µM*	-10.0%	-23.7%
22	CCOc1cc(-c2nc3cc(C)ccn3c2NCC2CCCO2)ccc1O (stereo unspecified)	-6.9%	30.2%	0.4%	-0.8%
23	Cc1ccc(C)c(NC(=S)c2ccc3ccccc3n2)c1	-7.0%	15.8%	-6.9%	-8.0%
24	O=C(/C=C/c1ccccc1)NC(=S)NNC(=O)c1cnccn1	-6.3%	-20.4%	39.3%[activator]	-6.9%
25	N#C/C(=C\c1ccc(Cl)cc1)c1nc(-c2ccco2)cs1	-7.4%	0.1%	-5.4%	1.9%
26	CC(=O)c1cccc(Nc2ncnc3c2cnn3-c2cccc(Cl)c2)c1	-7.8%	3.8%	28.8%	-4.8%
27	COc1ccccc1N1CCN(c2nc(-c3ccc(C)cc3)nc3ccccc23)CC1	-0.5%	8.4%	14.6%	-9.6%
28	CC1(c2ccc(Cl)cc2Cl)OCC(Cn2ccnc2)O1 (stereo unspecified)	-17.3%	14.9%	11.6%	2.0%
29	COc1ccc(C2=NNC(c3cccs3)=Nc3ccc(OC)cc32)cc1	-3.0%	1.7%	11.5%	-10.1%
30	Cc1nn(-c2ccccc2)c(N)c1C(c1ccc(C(C)C)cc1)c1c(C)nn(-c2ccccc2)c1N	-10.7%	-0.2%	6.7%	-11.9%

cpd	G9a inh	Pol eta inh	APE1 inh	POLK inh
21	50.1µM*	u	u	6.9%
22	u	-8.1%	-2.2%	-15.0%
23	u	-15.4%	-0.4%	1.1%
24	31.6µM*	-5.0%	-1.9%	-3.1%
25	u	-5.1%	5.3%	-7.7%
26	5.6%[59 µM]	-21.4%	x	-5.2%[60.1 µM]
27	-3.6%[59 µM]	3.6%	x	-4.9%[60.1 µM]
28	u	u	u	-2.0%
29	u	-0.2%	0.3%	-2.7%
30	12.6µM*	-17.9%	-8.1%	-3.2%

# Record cards, from the list above. Order of screens: Apoferritin bind, POLB inh, POLI inh, BLM inh, G9a inh, Pol eta inh, APE1 inh, POLK inh
# Entry for COc1ccccc1N1CCN(c2nc(-c3ccc(C)cc3)nc3ccccc23)CC1 = -0.5%, 8.4%, 14.6%, -9.6%, -3.6%[59 µM], 3.6%, x, -4.9%[60.1 µM]
# Entry for CCOc1cc(-c2nc3cc(C)ccn3c2NCC2CCCO2)ccc1O (stereo unspecified) = -6.9%, 30.2%, 0.4%, -0.8%, u, -8.1%, -2.2%, -15.0%
# Entry for Cc1ccc(C)c(NC(=S)c2ccc3ccccc3n2)c1 = -7.0%, 15.8%, -6.9%, -8.0%, u, -15.4%, -0.4%, 1.1%

# (list continues)
cpd	SMILES	Apoferritin bind	POLB inh	POLI inh	BLM inh
31	CCOC(=O)c1ccc(NC(=O)CSc2nc3sc(C(=O)O)c(C)c3c(=O)[nH]2)cc1	-4.1%	9.4%	8.8%	-4.4%
32	CSc1cccc(NC(=S)N(CCN(C)C)C(C)c2ccccn2)c1 (stereo unspecified)	-22.5%	-22.2%	u	2.5%
33	COc1ccc(OC)c(C2NC(=O)NC(C)=C2C(=O)Nc2ccc(F)cc2)c1 (stereo unspecified)	4.3%	-2.2%	12.5%	-7.3%
34	CCN1CCN(CC(=O)Nc2ccc(OC(F)(F)F)cc2)CC1	6.9%	0.4%	76.7%[activator]	-1.0%
35	COc1cc2c(cc1OC)CN(C(=O)CN1CCN(S(=O)(=O)c3ccccc3Br)CC1)CC2	6.9%	7.8%	13.8%	0.2%
36	Cc1cc(NC(=O)CCc2ccccc2)c([N+](=O)[O-])cc1C	u	-6.6%	2.9%	-2.1%
37	CN1/C(=C/C=N/NC(=O)c2ccc([N+](=O)[O-])cc2)C(C)(C)c2ccccc21	3.9%	18.9%	-5.8%	0.9%
38	COc1ccc(NC(=O)NC(C)c2c(-n3cccc3)sc3c2CCN(C)C3)c(OC)c1 (stereo unspecified)	1.2%	18.3%	2.3%	0.1%
39	Cc1ccc(F)c(Oc2cc(NN3CCCCC3)c([N+](=O)[O-])cc2[N+](=O)[O-])c1	-16.0%	14.4%	-1.3%	-3.6%
40	COc1ccc(-c2cc(C(=O)NCC(C)C)no2)cc1	-2.9%	-7.7%	-23.9%	0.3%

cpd	G9a inh	Pol eta inh	APE1 inh	POLK inh
31	9.8%	-9.8%	1.3%	-27.5%
32	-5.4%	-4.0%	-3.6%	-5.8%
33	u	1.7%	x	-16.7%
34	u	-6.9%	40.4%	4.5%
35	u	-5.7%	-7.4%	0.7%
36	u	-8.8%	0.1%	-6.5%
37	8.3%[59 µM]	-12.8%	1.1%	11.5%
38	u	-11.3%	x	-5.8%
39	x	-3.4%	6.3%	-3.0%
40	-7.7%	-14.7%	4.1%	3.2%

# Next section:
cpd	SMILES	Apoferritin bind	POLB inh	POLI inh	BLM inh
41	COc1cccc(C#Cc2c(CO)[nH]c3ccccc23)c1	x	x	34.3%[activator]	x
42	CCOC(=O)c1c(NC(=O)C(C)NCc2ccco2)sc2c1CCC(C)C2 (stereo unspecified)	80.1%[activator]	-2.5%	-0.3%	-11.0%
43	Cc1nnc(NC(=O)c2ccc(S(=O)(=O)N3CCCCCC3)cc2)o1	-15.4%	22.1%	2.3%	2.3%
44	CCOC(=O)C1=C(C)N=C2SC(C(=O)OC)=CC(=O)N2C1c1ccc(OC)cc1 (stereo unspecified)	u	-19.4%	89.1µM*	-6.0%
45	O=C(Cc1ccccc1)Nc1nnc(-c2ccccc2)o1	-13.4%	22.7%	22.8%	4.0%
46	COCCn1nnnc1C(c1cc2cccc(C)c2[nH]c1=O)N1CCN(c2ccccc2F)CC1 (stereo unspecified)	-8.0%	-12.7%	-0.1%	1.0%
47	COC(=O)c1cccc(Nc2c(-c3ccc(SC)cc3)nc3nc[nH]n23)c1	-6.6%	3.5%	46.1%[activator]	-11.0%
48	Cc1cccc(CNc2ncc(-c3cccc([N+](=O)[O-])c3)n2C)c1	-23.1%	-2.0%	15.5%	-3.8%

cpd	G9a inh	Pol eta inh	APE1 inh	POLK inh
41	6.5%[0.501 µM]	-1.4%	15.9%	-9.2%
42	11.2µM*	-2.6%	1.3%	-11.7%
43	u	-11.4%	-5.4%	-14.5%
44	u	-12.8%	8.7%	-24.3%
45	16.6%	-13.3%	14.6%	1.3%
46	3.16µM*	-10.4%	-0.7%	-0.4%
47	-23.0%[59 µM]	-22.6%	x	-5.9%[60.1 µM]
48	44.7µM*	-20.3%	-0.4%	4.7%

# Screening results as filed in PubChem BioAssay.

# Not all compounds are listed, so the mix of outcomes need not match the whole.
